# Screens as filed in PubChem BioAssay.
# Mtb growth – M. tuberculosis H37Rv growth inhibitors, H37Rv strain (AID 1626) | actives 0.95% (n = 220,000) | M. tuberculosis H37Rv growth inhibition; higher % means a stronger effect | one-dose inhibition, % at 10 µM; IC50 in µM for titrated hits;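 active means confirmed in a dose series; inconclusive means inhibition above 80% but not taken into the dose series; inactive means below 80% or under 30% at every dose of the series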;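 further: bacteria incubated seven days before Alamar blue readout; 0% = bacteria only wells and 100% = bacteria with antibiotic wells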
# YopH PTP inh – YopH tyrosine phosphatase inhibitors, primary screen, biochemical, fluorescence Ex485/Em525. actives 0.16% (n = 140,000). YopH tyrosine phosphatase [Yersinia enterocolitica]. inhibition, %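 (about 10 µM by stock and volumes)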;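 active means inhibition of 50% or more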;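 further: controls were vehicle for no effect and minimum signal wells for full effect; inactives centre near -20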
# Arbovirus inh – antivirals against arbovirus infection, primary screen, cell-based, full library, 10K replicate subset | arbovirus infection cell-based antiviral screen | inhibition, % at 10 µM | AID 1251, 2008 | actives 0.37% (n = 200,000);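 active means inhibition from about 30%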;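 further: bluetongue infection of BSR cells; cell survival read as ATP light after 72 h; 0% = infected wells without compound and 100% = uninfected wells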
# Mtb bLac sens – beta-lactam sensitization of Mtb H37Rv, H37Rv | M. tuberculosis H37Rv growth with meropenem, percent inhibition; hits of this screen are not shown here | inhibition, % at 25 µM | actives 0.27% (n = 330,000) | AID 434955, 2010;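 active means about 74% or more and at least 40 points above the plate without the antibiotic, then above 30% in a dose series; inconclusive means first-round hits that could not be retested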;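 further: growth measured after seven days incubation then overnight dye step; 0% = bacteria only wells and 100% = bacteria with antibiotic; twin plates without the antibiotic show which effects depend on it; some results filed as inactive read as strong as hits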
# RecA intein inh – Mtb RecA intein splicing inhibitors, primary screen, biochemical, fluorescence, HTS; cell-free RecA intein splicing; actives 0.75% (n = 290,000); inhibition, %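 (about 9 µM by stock and volumes)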; AID 2221, 2009; in the data active means inhibition above about 30%; inconclusive means no clear call, values can overlap the other calls;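 further: 0% = vehicle wells and 100% = reference inhibitor control wells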
# Target sequence (P9WHJ3 whole entry, looked up): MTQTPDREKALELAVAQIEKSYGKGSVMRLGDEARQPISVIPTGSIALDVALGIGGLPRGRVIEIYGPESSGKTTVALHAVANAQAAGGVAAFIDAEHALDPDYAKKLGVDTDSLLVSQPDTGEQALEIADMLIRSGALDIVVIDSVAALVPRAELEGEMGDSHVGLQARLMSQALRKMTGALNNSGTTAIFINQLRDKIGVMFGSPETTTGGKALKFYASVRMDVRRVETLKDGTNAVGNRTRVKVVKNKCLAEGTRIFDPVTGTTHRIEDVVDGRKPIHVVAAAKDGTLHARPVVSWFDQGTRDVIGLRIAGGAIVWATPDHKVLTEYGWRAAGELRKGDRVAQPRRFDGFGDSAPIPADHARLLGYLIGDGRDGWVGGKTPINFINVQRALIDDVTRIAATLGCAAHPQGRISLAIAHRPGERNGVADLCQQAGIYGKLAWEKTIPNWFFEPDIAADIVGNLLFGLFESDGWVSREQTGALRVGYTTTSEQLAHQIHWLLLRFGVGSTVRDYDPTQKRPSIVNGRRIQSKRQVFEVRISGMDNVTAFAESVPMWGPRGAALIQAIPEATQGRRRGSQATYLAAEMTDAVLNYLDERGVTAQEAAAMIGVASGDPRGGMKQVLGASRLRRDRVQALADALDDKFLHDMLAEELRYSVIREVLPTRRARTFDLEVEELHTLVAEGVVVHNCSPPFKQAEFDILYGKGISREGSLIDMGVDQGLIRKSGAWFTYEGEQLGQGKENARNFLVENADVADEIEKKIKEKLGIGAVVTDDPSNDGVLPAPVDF
# An asterisk follows results filed as active; ? = inconclusive; . = not tested or not shown. These rows are one share of the data (hit frequency here may not be typical).
# Each structure is followed by: Mtb growth	YopH PTP inh	Arbovirus inh	Mtb bLac sens	RecA intein inh
(1) Cc1ccccc1CN1CCN(C(=O)c2cccc(F)c2)CC1
→ 1%	-10	11	-6	-0.7
(2) O=C1c2ccccc2C(=O)N1c1ccccc1S(=O)C(F)(F)F (stereo not drawn)
→ -2%	-24	1	-15	-10
(3) C[C@]12C(=O)N(c3ccc(Br)cc3)C(=O)N1[C@@H]1c3ccccc3OC[C@@H]1[C@H]2c1ccccc1
→ .	.	.	41	-0.2
(4) O=C(CC1C(=O)NCCN1C/C=C/c1ccccc1)NCCc1cnccn1 (stereo not drawn)
→ .	.	.	1	-0.9
(5) CCN1/C(=C/c2ccc3cccc(C)c3[n+]2CC)Sc2ccccc21
→ ?	-17	-37	100	0.4
(6) COc1cccc(/C=C2/CN(C)CC3=C2OC(N)=C(C#N)C3c2cccc(OC)c2)c1 (stereo not drawn)
→ 9%	26	16	61	.
(7) COc1ccc(NC(=O)CSc2nncs2)cc1OC
→ 0%	-40	-3	-9	1.6
(8) O=C(CC1C=Cc2ccccc2N1C(=O)c1ccccc1)c1ccccc1 (stereo not drawn)
→ 8%	.	.	1	6.7
(9) Cc1ccc(S(=O)(=O)N2CCCC2C(=O)O)cc1 (stereo not drawn)
→ -1%	-50	6	1	-1.4
(10) COc1ccc(OCC(O)Cn2c(=N)n(CCN3CCCCC3)c3ccccc32)cc1 (stereo not drawn)
→ 6.2µM*	-30	-17	99	.
(11) Cc1cc(-n2ccc(=O)[nH]c2=O)nc(-c2ccccc2)n1
→ 8%	-37	1	-1	4.3
(12) O=C(CN1C(=O)S/C(=C\c2cccc(Cl)c2)C1=O)NCCCn1ccnc1
→ .	.	.	?	6.3
(13) CC(C)(C)n1nnnc1C(c1ccccc1)N1CCc2ccccc2C1 (stereo not drawn)
→ 6%	4	-34	-4	10
(14) COc1cccc(C(=O)N2CCC(n3nccc3NC(=O)CCOc3ccccc3)CC2)c1
→ .	.	.	4	2.2
(15) O=C(CCC(=O)Nc1ccc(F)cc1)N/N=C/c1ccc(F)cc1
→ .	.	.	1	-0.8
(16) O=C(c1ccc2ccccc2n1)N1CCN(Cc2c(F)cccc2Cl)CC1
→ .	.	.	1	1.1
(17) Cc1cccc(NC(=O)c2cccc(C(=O)Nc3cccc(C)c3)n2)c1
→ .	.	.	5	-3.7
(18) CCCCCCC(=O)N/N=C/c1c(O)n(C(C)CC)c(=S)[nH]c1=O (stereo not drawn)
→ 1%	.	.	10	-1.3
(19) O=C(Cc1ccc(F)cc1)Nc1ccc(F)c([N+](=O)[O-])c1
→ 5%	-18	7	-4	3.9
(20) CCCOC(=O)c1c(NC(=O)CSc2nc(-c3ccco3)cc(C(F)(F)F)n2)sc(C(=O)OC)c1C
→ 0%	-10	0	-6	3.1
(21) COc1ccc(-c2cc(=O)c3ccccc3[nH]2)cc1
→ 0%	-9	-3	-5	-1.6
(22) CCN(CC)S(=O)(=O)c1ccc(C(=O)NCc2ccc3c(c2)OCO3)cc1
→ 4%	.	1	-3	1.7
(23) COc1cc2c(cc1NC(=O)CSCC(=O)O)oc1ccccc12
→ -1%	-12	10	-1	-0.3
(24) CC1CCCCN1CCNC(=O)C1CC(=O)N(c2ccc(F)c(Cl)c2)C1 (stereo not drawn)
→ 1%	11	-3	-9	-0.3
(25) Cc1ccc(-c2csc(=S)[nH]2)cc1
→ 21%	.	1	97	-4.2
(26) CC(C)(C)NC(=O)Cc1ccc(Cl)c(Cl)c1
→ 4%	.	-1	-1	3.0
(27) O=C(N/N=C\c1ccc2c(c1)OCO2)c1ccc(Cn2cc(Br)c([N+](=O)[O-])n2)o1
→ -9%	.	-30	9	-1.7
(28) Cc1cccc(CN2CCC(C(N)=O)CC2)c1
→ -6%	-42	6	3	-2.6
(29) O=c1c(-c2ccccc2)coc2c(CN3CCCC3)c(O)ccc12
→ -3%	-10	17	-7	-2.1
(30) CCOC(=O)c1cnc2ccc(OCC)cc2c1NCc1cccnc1
→ 11%	-28	-18	37	-9.8

# Other compounds follow:
# Each structure is followed by: Mtb growth	YopH PTP inh	Arbovirus inh	Mtb bLac sens	RecA intein inh
(31) COc1ccc(CNC(C)C2COc3ccccc3O2)c(OC)c1 (stereo not drawn)
→ 5%	-25	12	8	-0.1
(32) Clc1ccc(COc2ccccn2)c(Cl)c1
→ -9%	-17	-3	-13	0.6
(33) COc1ccc(-c2csc(NC(=O)CSc3nc(C)cs3)n2)cc1
→ 2%	-17	3	-9	-3.4
(34) O=C(NC(=S)Nc1cccc2cc(O)ccc12)c1ccco1
→ .	.	.	-11	0.4
(35) O=C(c1ccc(N2CCN(C3CC(=O)N(c4ccc(F)cc4)C3=O)CC2)cc1)c1cccnc1 (stereo not drawn)
→ 3%	-17	1	6	-2.0
(36) CCCc1c(-c2ccc(O)cc2)nn(-c2ccc(O)cc2)c1-c1ccc(O)cc1
→ 0%	.	.	1	51*
(37) Cc1cc(C)n(CC(=O)N2CCCC(C(=O)c3cccc(OC(C)C)c3)C2)n1 (stereo not drawn)
→ 10%	.	1	5	4.1
(38) COc1ccc(N2CC(C(=O)N[C@@H](C)C(=O)NC3CCCCC3)CC2=O)cc1 (stereo partly drawn)
→ .	.	.	-6	-0.4
(39) CC(C)OCCCNC(=O)C(C)Oc1ccccc1 (stereo not drawn)
→ -5%	-8	5	-7	0.4
(40) Cc1ccc(-n2c(N)c(C#N)c(-c3ccccc3)c(C#N)c2=O)cc1
→ -5%	-22	4	-3	-1.3
(41) CN(C)CC1CCCCC1OC(=O)c1ccc(S(=O)(=O)N(C)c2ccccc2)cc1 (stereo not drawn)
→ .	.	.	-3	2.6
(42) O=C(COc1ncnc2ccc(Br)cc12)N1CCOCC1
→ -2%	-14	2	-5	0.3
(43) COc1ccccc1NC(=O)CSc1nc2ccccc2n1C(C)=O
→ -3%	-40	9	45	3.4
(44) CN1CCN(C(=O)c2ccc(CSc3ccc(Cl)cc3)cc2)CC1
→ 0%	-25	-14	9	0.3
(45) CCN(CCCNC(=O)CCCOc1cc(=O)n(C)c2ccccc12)Cc1ccccc1
→ 3%	.	-13	0	2.8
(46) O=C(c1ccc2nc(Cc3cccc(Cl)c3)oc2c1)N1CCC(CO)CC1
→ .	.	.	-2	1.9
(47) Cc1cccc(N2N=C(C(=O)N3CC(=O)Nc4ccccc43)CCC2=O)c1
→ .	.	-1	-1	3.1
(48) O=C(CCc1ccccc1)Nc1ccccc1
→ -7%	.	-7	0	1.8
(49) Nc1nc2ccccc2n1C(=O)c1ccc(F)cc1
→ 1.9µM*	.	-6	97	0.1
(50) Cc1cc(Cn2nnnc2-c2ccncc2)cc(C)c1O
→ .	.	.	-3	0.0
(51) CC1(C(=O)N/N=C/c2ccc([N+](=O)[O-])o2)CC1(Br)Br (stereo not drawn)
→ 13%	-1	-40	96	29
(52) COCCNC(=O)C(C)Oc1ccc(Cl)cc1Cl (stereo not drawn)
→ .	-8	-7	53	0.4
(53) O=[N+]([O-])c1cc([N+](=O)[O-])c(Oc2cc(F)cc(F)c2F)cc1NN1CCCCC1
→ .	.	.	-3	2.0
(54) Cc1ccc2[nH]c3c(=O)n(Cc4ccccn4)cnc3c2c1
→ -10%	-29	-4	-13	-4.2
(55) Cc1ccc(C(=O)NCC(=O)OCC(=O)N2CCCc3ccccc32)cc1
→ 13%	-15	7	-1	0.2
(56) Cc1cc2ccccc2c(=O)n1CC(=O)NCC(=O)N1CCN(c2ccccc2)CC1
→ -5%	4	3	-1	-1.0
(57) O=C(Nc1ccc(Oc2cccnc2)cc1)c1ccc([N+](=O)[O-])cc1
→ 8%	.	8	11	-1.7
(58) CCN(CC)S(=O)(=O)c1ccc(C)c(N=C=S)c1
→ 6%	.	2	-1	4.8
(59) Cc1cc(NC(=O)CCCN2C(=O)/C(=C/c3ccccc3Cl)SC2=S)no1
→ .	.	.	86	-1.4
(60) CCOC(=O)C1(Cc2ccccc2C)CCCN(C(=O)c2ccc3nccnc3c2)C1 (stereo not drawn)
→ .	.	.	-7	0.2

# Next part:
# Each structure is followed by: Mtb growth	YopH PTP inh	Arbovirus inh	Mtb bLac sens	RecA intein inh
(61) CCSc1nnc(NC(=O)c2cc(-c3ccc(C)c(C)c3O)n[nH]2)s1
→ -16%	12	4	.	-3.0
(62) CC(C)NC(=S)N1CCn2c(nc3ccccc32)C1
→ -5%	-23	5	-1	-1.7
(63) O=C(OCCCN=C1NS(=O)(=O)c2ccccc21)c1cccs1
→ -3%	.	0	-14	0.5
(64) CC(C)C(=O)Nc1ccc(N2CCN(S(C)(=O)=O)CC2)cc1
→ -9%	-41	-2	2	-4.3
(65) Cc1nnc(SC2CC(=O)N(c3ccccc3)C2=O)s1 (stereo not drawn)
→ -8%	-34	10	22	6.6
(66) Cc1cc(NC(=O)CN2CCN(S(=O)(=O)c3ccc(Cl)cc3)CC2)no1
→ -1%	7	3	-8	-3.4
(67) CCC(C)NC(=O)c1ccc(CSc2nc3ccncc3n2Cc2ccc(F)cc2)cc1 (stereo not drawn)
→ 2%	-16	-2	3	-0.7
(68) Cc1cc(NS(=O)(=O)c2ccc(C(C)C)cc2)no1
→ .	.	.	13	3.0
(69) Cc1ccc(NC(=O)C(C)N2C(=O)c3ccccc3C2=O)cc1S(=O)(=O)N1CCOCC1 (stereo not drawn)
→ 3%	.	8	.	.
(70) CCOc1ccccc1NC(=O)Nc1ccc(Br)cn1
→ 2%	.	0	2	-0.4
(71) COc1ccc(C(=O)NCC(=O)NCC(=O)OCc2ccc(Cl)cc2)cc1
→ .	.	.	-1	-1.0
(72) Cc1cc(NC(=O)c2ccco2)ccc1NC(=O)Cc1cccs1
→ -3%	1	2	-6	-0.2
(73) COc1ccccc1N(CC(=O)N1CCN(c2ccc(F)cc2)CC1)S(=O)(=O)c1ccc(C)cc1
→ .	.	.	-11	-0.6
(74) C/C(=N\NC(=O)Cc1ccc([N+](=O)[O-])cc1)c1cccnc1
→ .	.	.	4	-1.5
(75) CN1C(=O)N(C)C2C1NC(=O)N2C (stereo not drawn)
→ 2%	-35	0	-1	0.9
(76) CCOc1ccc(N2CC(C(=O)NCCN3C(=O)S/C(=C\c4cccnc4)C3=O)CC2=O)cc1 (stereo not drawn)
→ 3%	.	8	-7	2.7
(77) O=C(O)c1cc2ccccc2c2cc(Br)ccc12
→ -1%	.	.	1	-0.9
(78) Cn1c(-c2cccc3ccccc23)n[nH]c1=S
→ -2%	-36	-1	4	-0.4
(79) CN(c1ccccc1)S(=O)(=O)c1ccc2[nH]c(=O)[nH]c2c1
→ .	.	.	-4	-3.9
(80) O=C(CCCCCBr)N1CCC(CC2CC(c3ccc(Cl)cc3)=NO2)(C(=O)NCC2CCCCC2)CC1 (stereo not drawn)
→ .	.	.	-4	5.7
(81) CCOC(=O)Cc1cc(OC)c(OC)cc1Cc1cc(OC)c(OC)cc1CC(=O)OCC
→ -2%	-9	-3	6	1.1
(82) O=C1CN(C(=O)/C=C/c2ccco2)c2ccccc2N1
→ 2%	.	5	-8	-6.5
(83) COC(=O)c1[nH]c2c(c1C)C(=O)CC(c1ccc(OC)cc1)C2 (stereo not drawn)
→ .	.	.	3	1.7
(84) COc1ccc(/C=C(\NC(=O)c2ccc(C)cc2)C(=O)NCCN2CCOCC2)cc1
→ .	.	.	-1	-3.5
(85) CCc1nnc(NC(=O)CSc2nc(C)nc3c2c(=O)n(C)c(=O)n3C)s1
→ .	.	.	15	-0.6
(86) COc1cc(NC(=S)NC(=O)c2cc(C)cc(C)c2)ccc1NC(=O)c1cccs1
→ -6%	4	-8	-6	-1.1
(87) Cc1csc(=NC(=O)c2ccccc2)n1CCO
→ 0%	6	-1	-7	1.6
(88) CC(CN1CCCCC1)OC(=O)Cc1ccc(Cl)cc1 (stereo not drawn)
→ -4%	3	-6	2	-0.1
(89) CC1=C([N+](=O)[O-])C(c2ccc(Cl)cc2)NC(=O)N1 (stereo not drawn)
→ .	.	.	-2	-3.3
(90) COc1ccc(NS(=O)(=O)c2ccc3c(c2)N(C(C)=O)CCO3)c(OC)c1
→ .	.	.	2	-1.5
(91) Cc1nn(C)c(Oc2ccc(Cl)cc2)c1C(=O)Nc1ccc(F)cc1F
→ 10%	-20	4	0	4.5
(92) CCc1nnc(NC(=O)c2cc(S(=O)(=O)N(C)c3ccc(OC)cc3)ccc2Cl)s1
→ .	.	.	-22	1.3
(93) CC1CCCC(NC(=O)COC(=O)CCSc2ccccc2)C1C (stereo not drawn)
→ 3%	.	3	6	12
